Assay outcomes deposited in PubChem BioAssay by National Center for Advancing Translational Sciences (NCATS).
VDR inhibitor = Inhibitors of the vitamin D receptor (VDR): qHTS. AID 504847, 2011. Vitamin D3 receptor (Homo sapiens), P11473. Potency, µM, inactives show max response, negative = inhibition, hits mostly inhibitors. hit rate 0.93% among 400,000. VDR-SRC2-3 peptide fluorescence polarization, 2 h; active means well fitted inhibition curve with a large enough effect; inconclusive means small, poorly fitted or top-dose-only effect, or another doubt; inactive means no such curve, though single readings can be large or run the other way; further: series mostly up to about 120 µM
Target sequence (P11473 whole entry, looked up): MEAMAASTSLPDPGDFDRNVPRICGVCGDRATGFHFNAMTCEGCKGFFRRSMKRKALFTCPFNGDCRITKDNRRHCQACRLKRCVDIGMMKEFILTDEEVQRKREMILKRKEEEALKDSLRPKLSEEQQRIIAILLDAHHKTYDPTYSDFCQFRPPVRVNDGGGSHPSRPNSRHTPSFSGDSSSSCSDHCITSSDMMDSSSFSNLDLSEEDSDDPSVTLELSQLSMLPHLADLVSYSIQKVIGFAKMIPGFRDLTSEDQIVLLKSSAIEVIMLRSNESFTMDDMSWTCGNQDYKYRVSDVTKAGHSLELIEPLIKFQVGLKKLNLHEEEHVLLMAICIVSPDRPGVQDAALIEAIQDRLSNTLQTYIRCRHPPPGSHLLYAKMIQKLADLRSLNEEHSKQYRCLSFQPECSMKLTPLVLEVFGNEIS
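Reagent solutions, kept cold and dark, are dispensed first; compounds are then pinned in at 23 nl, plates briefly spun, and incubated 2 h at ambient temperature. Inhibition of VDR–SRC2-3 peptide binding is read by fluorescence polarization.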
* hit, by the source's call; ? = inconclusive; & = joins results of further samples. On the % scale 0 is the no-effect control and ±100 the full control effect; potency means the concentration at half of the fitted maximal effect. Not all compounds are listed (hit frequency here may not be typical).

cpd	mol	VDR inhibitor
1	COc1ccc(S(=O)(=O)N2CCCCCC2)cc1C(=O)OC(C)C(N)=O (stereo not drawn)	10%
2	CC(C)CC(COCc1ccc(F)cc1)N1CCN(C(=O)c2cccc(C(F)(F)F)c2)CCC1=O (stereo not drawn)	1%
3	COc1cccc(NC(=O)Nc2ccc3snnc3c2)c1	10%
4	COc1cccc(NC(=O)CNC(=O)N2CC(=O)Nc3ccccc32)c1	1%
5	O=[N+]([O-])c1ccc(N2CCCC2)cc1NC1CC1	-12%
6	CSc1nnc(Cc2sc(-c3ccccc3)nc2-c2ccccc2)o1	5%
7	O=C(O)c1ccccc1-c1c2ccc(=O)cc-2oc2cc(O)ccc12	2%&-14%
8	COc1ccc(CC(C(=O)Nc2cc(C)ccc2C)/C(N)=N/O)cc1 (stereo not drawn)	?
9	CCc1nc2sc(C)c(C)c2c(=O)n1CCO	0%
10	COc1cc(COc2cc(N)c(Cl)cc2C(=O)CCC2CCN(CCNS(C)(=O)=O)CC2)cc(OC)c1	0%&8%
11	Cc1ccc(-c2nc(CN(CC3CCC3)CC3CCCO3)c(C)o2)s1 (stereo not drawn)	-10%
12	CCN(CC)S(=O)(=O)c1cc(C(=O)OCC(=O)NC2CCCc3ccccc32)ccc1C (stereo not drawn)	-20%
13	Cc1cc(C)c2c(n1)sc1c(=O)[nH]c(SCc3ccccc3)nc12	-16%
14	CC1CCCN(CC(=O)Nc2cc(S(=O)(=O)N3CCOCC3)ccc2N2CCCC2)C1 (stereo not drawn)	3%
15	Cc1ccccc1Sc1c(C#N)c(-c2ccccc2)nn1C	13%
16	Cc1sc2nc(SCC(=O)N(C)Cc3ccccc3)n(-c3ccccc3)c(=O)c2c1C	19%
17	CCOc1ccc2nc(N3C(=O)/C(=C/c4ccc(Cl)cc4)NC3=S)sc2c1	-13%
18	COc1cc2c(cc1OC)CN(C1CCCN(Cc3cc(Cl)ccc3O)C1)CC2 (stereo not drawn)	16%
19	CCN(C(=O)COC(=O)c1ccc(C)c(S(=O)(=O)N2CCCCC2)c1)C1CCS(=O)(=O)C1 (stereo not drawn)	-5%
20	Cc1sc2nc(SCC(=O)N(CCO)CCO)nc(N)c2c1C	-15%
21	CCC1CCCCN1S(=O)(=O)c1ccc([N+](=O)[O-])cc1 (stereo not drawn)	29%
22	COc1ccc2c(c1)c(=O)oc1cc(OCC(=O)NC3CCCCC3)ccc12	-2%
23	O=C(O)c1ccc(OCCn2ccnc2)cc1	-25%&-7%
24	CC(C)CCNC(=O)C1CCC(Cn2c(=O)c3sccc3n(CC(=O)NC(C)C)c2=O)CC1 (stereo not drawn)	-5%
25	Cc1ccc(C)c(OCCSc2nc3ccccc3n2CC(=O)N2CCOCC2)c1	10%
26	Cc1cc([N+](=O)[O-])nn1CC(=O)N/N=C/c1ccccc1O	-2%
27	Cc1c(C)c2ccc(OC(C)C(=O)N3C[C@H]4C[C@@H](C3)c3cccc(=O)n3C4)c(C)c2oc1=O (stereo partly drawn)	-17%
28	Cc1cccc(NC(=O)c2ccccn2)c1C	-8%
29	O=C(N/C(=C\c1ccco1)C(=O)N1CCCC(CO)C1)c1ccccc1 (stereo not drawn)	8%
30	C=CCNC(=S)N/N=C(\C)c1ccccn1	-2%
31	CCOC(=O)c1cn(-c2ccc(F)c(F)c2F)c2c(F)c(F)c(F)cc2c1=O	-24%
32	NC(=O)c1ccc(NC(=O)COC(=O)C2COc3ccccc3O2)cc1 (stereo not drawn)	-16%
33	Cc1noc(NS(=O)(=O)c2ccc(NC(=O)COc3ccc(C#N)cc3)cc2)c1C	-1%
34	Cc1ccc(C(=O)Nc2nnc(SCc3cc(=O)n4ccc(C)cc4n3)s2)cc1	16%
35	O=C(COC(=O)c1cccc(NS(=O)(=O)c2ccc(F)c(F)c2)c1)NC(=O)NC1CCCC1	-18%
36	Cc1cc(NC(=O)CSc2nc(=O)n3cc(Cl)ccc3n2)no1	19%
37	CCOC(=O)c1sc2nc(CN3CCCCC3)nc(Cl)c2c1C	-11%
38	CCn1nnc(-c2ccc(N)cc2)n1	-9%
39	Cc1ccc(C(=O)c2ccccc2C(=O)OCC(=O)Nc2cccc([N+](=O)[O-])c2)cc1	15%
40	Cc1ccc(S(=O)(=O)Nc2ccc3nc(-c4cccn4C)[nH]c3c2)cc1	-8%
41	CCCCNC(C(=O)Nc1ccc([N+](=O)[O-])cc1Br)c1ccccc1 (stereo not drawn)	-8%
42	CC(=O)Nc1ccc(N2C(=O)CSC2c2cccc(Br)c2)cc1 (stereo not drawn)	-1%
43	c1ccc(CN2CCC3(CC2)Nc2ccccc2S3)cc1	-22%
44	C=CCN1C(=O)N(/C=C/C)c2cccc3cccc1c23	-7%
45	COc1ccc(C(=O)NCc2ccncc2)cc1S(=O)(=O)NCc1ccc(Cl)cc1	12%
46	COc1ccc(CCN2C(=NC(=O)CCC(=O)O)SC3CS(=O)(=O)CC32)cc1 (stereo not drawn)	9%
47	N#Cc1c(N)n(CCNC(=O)c2ccccc2)c2nc3ccccc3nc12	-26%
48	Cc1cccc(NC(=O)N2CCC(N3CCN(Cc4ccccc4)C(=O)C3=O)CC2)c1C	7%
49	CCOC(=O)c1[nH]c2ccc(C)cc2c1N=C(C)N(C)C	13%
50	O=c1cnc2cnc(Oc3cccc(Cl)c3)nc2n1C1CC1	-23%
51	CCc1ccc(C(=O)c2cn(CC(=O)Nc3ccc4c(c3)OCO4)c3ccc(F)cc3c2=O)cc1	0%
52	O=C1C2C3C=CC(C3)C2C(=O)N1Cc1ccccc1 (stereo not drawn)	2%
53	O=C(Cn1nc(-c2ccco2)ccc1=O)Nc1cc(Cl)ccc1Cl	-20%
54	CC(C)(C)C(=O)Nc1nnc(SCC(=O)Nc2ccc3c(c2)OCO3)s1	-5%
55	FC(F)(F)C(Oc1nc(NC2CCCCC2)nc(N2CCOCC2)n1)C(F)(F)F	-8%
56	CCOC(=O)c1c(C)[nH]c(C(=O)CN2CCOCC2)c1C	-5%
57	COc1cccc(CNC(=O)Cn2ncc3c4ccccc4n(Cc4ccccc4)c3c2=O)c1	6%
58	CC(C)CNC(=O)CN1C(=O)NC2(CCCc3ccccc32)C1=O (stereo not drawn)	-5%
59	Cc1nc(C(=O)NNC(=O)c2ccccc2Cl)c(C(F)(F)F)o1	-14%
60	Cc1cc(NC(=O)c2cc(CC(C)C)on2)n(-c2ccccc2)n1	-12%

(continued)
cpd	mol	VDR inhibitor
61	Cc1cc(C)nc(SCc2ccc(C(=O)N/N=C/c3ccccc3C(=O)O)cc2)n1	-20%
62	COc1ccc(CC(=O)Nc2cccc(-c3nnc(-c4ccc(C)cc4)o3)c2)cc1OC	-3%
63	O=C(CSCc1ccc(Br)cc1)Nc1ccc(S(=O)(=O)N2CCCCCC2)cc1	-2%
64	O=C(O)CC/C(=N\Nc1ccc(Cl)cc1)c1cccs1	-15%
65	Cc1ccc(S(=O)(=O)Oc2ccccc2)cc1	2%
66	CCC1CCCCN1C(=O)C(=O)c1cn(CC(=O)N(CC)CC)c2ccccc12 (stereo not drawn)	-12%
67	Cc1ccccc1N1CC(c2nc3ccccc3n2CCC2CCCCC2)CC1=O (stereo not drawn)	8%
68	CC(C)(C)OC(=O)NN1CC(=O)N2[C@@H](Cc3c([nH]c4ccccc34)C2(C)C)C1=O	16%
69	O=c1cnc2cnc(N3CCNCC3)nc2n1Cc1cccs1	-23%
70	O=C(NCCCc1nc2ccccc2n1Cc1ccccc1F)c1ccco1	-2%
71	Cc1cc(OCCN2CCC(Cc3ccccc3)CC2)ccc1[N+](=O)[O-]	0%
72	CN=C(NC#N)NCCSCc1csc(N=C(N)N)n1	-10%&-12%
73	CC(=O)c1ccc(NC(=O)C(C)N2CCN(C/C=C/c3ccccc3)CC2)cc1 (stereo not drawn)	-16%
74	O=C(CSC1CC(=O)N(CC(c2ccccc2)c2ccccc2)C1=O)Nc1ccc(Cl)cc1 (stereo not drawn)	4%
75	COC(=O)C1CCCN1C(=O)C12CC3CC(CC(C3)C1)C2 (stereo not drawn)	7%
76	CCCc1cc(C(=O)N(C2CCCCC2)C2CCCCC2)no1	-11%
77	Cc1nn(CC(=O)Nc2ccc3c(c2)nc(CN2CCCC2)n3C)c(=O)c2ccccc12	23%
78	COc1ccc(NC(=O)N2CC3(CCNCC3)C2)cc1	3%
79	Cc1n[nH]c(C)c1S(=O)(=O)N(CC(=O)Nc1ccc2c(c1)OCCO2)c1ccc(C(C)C)cc1	-20%
80	COc1ccc(S(=O)(=O)N2CCOCC2)cc1C(=O)Nc1nc2ccccc2s1	8%
81	Cc1ccc(C(=O)Nc2ccccc2C(=O)NC(CC(=O)O)C(=O)O)cc1 (stereo not drawn)	6%
82	CC(c1ccccc1)n1cc2c(c1-c1ccccc1Br)c(=O)n(C)c(=O)n2C (stereo not drawn)	0%
83	Cc1ccc(S(=O)(=O)NC(=O)NCC2CCN(S(=O)(=O)c3ccccc3)CC2)cc1	-9%
84	Cc1cc(C)c(S(=O)(=O)N2CCN=C2c2ccccc2)cc1C	-6%
85	Cc1ccc(N2C(=O)N(CC(=O)N3c4ccccc4CC3C)C(=O)C2C)cc1 (stereo not drawn)	-18%
86	CCOC(=O)c1cccc(NC(=O)C2CCN(S(=O)(=O)c3ccc4c(c3)oc(=O)n4C)CC2)c1	-27%
87	O=C(Nc1cccc2c1CCCC2)c1ccco1	6%
88	COc1cccc(C(c2c(C)[nH]n(-c3ccccc3)c2=O)c2c(C)[nH]n(-c3ccccc3)c2=O)c1O	?
89	Cn1c(Oc2ccccc2NCc2cc(Br)ccc2O)cc(=O)n(C)c1=O	-18%
90	COc1ccc(Br)cc1CNC(=O)CCCn1c(=O)c2cccn2c2ccccc21	1%
91	Cc1cc(C)nc(NS(=O)(=O)c2ccc(NC(=O)CCC(=O)O)cc2)n1	-15%
92	O=C(CN(c1ccccc1)S(=O)(=O)c1ccc(F)cc1)N1CCCCCC1	-4%
93	CC[C@H](C)[C@H](NC(=O)[C@@H]1CCCN1C(=O)[C@H](Cc1cnc[nH]1)NC(=O)[C@@H](NC(=O)[C@H](Cc1ccc(O)cc1)NC(=O)[C@@H](NC(=O)[C@H](CCCN=C(N)N)NC(=O)CNC)C(C)C)[C@@H](C)CC)C(=O)O	-2%
94	Cc1nn(C)c2c1c(C(F)(F)F)cc(=O)n2Cc1cccc(Br)c1	18%
95	CC(C)(C)OC(=O)NCc1ccc(CNC(=O)c2[nH]cnc2C(=O)NC2CCN(C(=O)OC(C)(C)C)CC2)cc1	1%
96	CC(CCc1ccccc1)NC(=O)C1CC1 (stereo not drawn)	-17%
97	COc1cc(C(=O)Oc2cccnc2)cc(OC)c1OC	-10%
98	FC(F)(F)c1ccc(C2[C@H]3CN(Cc4ccc(-c5ccccc5)cc4)[C@H](c4ccccc4)C34CC2(c2ccccc2)C4)cc1 (stereo partly drawn)	-14%
99	Cn1nnnc1SCC1=C(C(=O)O)N2C(=O)C(NC(=O)C3CC3c3ccccc3)C2SC1 (stereo not drawn)	?
100	COc1cccc(C(=O)NC(=O)Nc2ccc(-c3cc(C(F)(F)F)nn3-c3ccccc3)cc2)c1	-3%
101	COc1cc(/C=C2/C(=O)N(c3ccc(C(=O)O)cc3)N=C2C)cc(OC)c1O	-1%
102	Cc1nn(Cc2ccccc2)c(C)c1/C=N/NC(=O)CNc1cccc(C(F)(F)F)c1	-12%
103	Cc1ccc(CNC(=O)C2CCCN(c3nn4c(=O)cc(C)nc4s3)C2)cc1 (stereo not drawn)	1%
104	CCOc1ccc(CCNC(=O)c2nnn(CC(=O)Nc3ccc(OC)cc3)c2N)cc1OCC	9%
105	CCCN1CCC(N(CCc2ccccc2)Cc2ccccc2)CC1	-22%
106	COc1cc(OC)cc(C(=O)NCC(=O)OCC(=O)C(C)(C)C)c1	-4%
107	Cc1cc(C)cc(OCC(=O)OCC(=O)N2CCc3ccccc32)c1	4%
108	CCOc1ccc(-c2nc(-c3ccccc3)c(-c3ccccc3)[nH]2)cc1OCC	-7%
109	O=C(NCCc1ccc(F)cc1)C(=O)NCC(c1ccco1)S(=O)(=O)c1ccccc1 (stereo not drawn)	-7%
110	COc1ccc(NC(=O)CSc2nc(N)c(C(=O)Nc3ccc(N(C)C)cc3)s2)cc1	13%
111	C=CCSc1nc(N)c(C#N)c(-c2ccc(C)cc2)c1C#N	-11%
112	CCN(CC(=O)Nc1ccc(NC(C)=O)cc1)C(=O)Cc1ccc(S(=O)(=O)N2CCOCC2)s1	-11%
113	CSc1nc(C)cc(C)c1S(=O)(=O)c1ccccc1C	1%
114	COC(=O)c1nn(-c2cccc(C)c2)c2nnc(Cc3ccc(C)cc3)c(=O)n12	-10%
115	COc1ccc(-c2noc(CCC(=O)NCCN3CCN(c4ccccc4F)CC3)n2)cc1	-4%

Structural class: the compounds so far with a CF3 group (seven)
cpd	mol	VDR inhibitor
2	CC(C)CC(COCc1ccc(F)cc1)N1CCN(C(=O)c2cccc(C(F)(F)F)c2)CCC1=O (stereo not drawn)	1%
55	FC(F)(F)C(Oc1nc(NC2CCCCC2)nc(N2CCOCC2)n1)C(F)(F)F	-8%
59	Cc1nc(C(=O)NNC(=O)c2ccccc2Cl)c(C(F)(F)F)o1	-14%
94	Cc1nn(C)c2c1c(C(F)(F)F)cc(=O)n2Cc1cccc(Br)c1	18%
98	FC(F)(F)c1ccc(C2[C@H]3CN(Cc4ccc(-c5ccccc5)cc4)[C@H](c4ccccc4)C34CC2(c2ccccc2)C4)cc1 (stereo partly drawn)	-14%
100	COc1cccc(C(=O)NC(=O)Nc2ccc(-c3cc(C(F)(F)F)nn3-c3ccccc3)cc2)c1	-3%
102	Cc1nn(Cc2ccccc2)c(C)c1/C=N/NC(=O)CNc1cccc(C(F)(F)F)c1	-12%
